High-throughput results as filed in PubChem.
BJeLR lethal: BJeLR cell viability loss | BJeLR (HRASV12) viability, CellTiter-Glo ATP luminescence, 48 h; reference of the scale not given here | inhibition, % (concentration not given with the values) | actives 0.17% (n = 300,000);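 active = replicate mean above 50%; inconclusive = above 50% but judged a plate artefact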;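 also: 50 nL library stock added to about 25 µL; numbers are from one replicate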
Sa RN4220 lethal: S. aureus RN4220 growth inhibition | OD600, 16 h | inhibition, % (concentration not given with the values) | actives 0.33% (n = 330,000) | AID 1259311;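 active = z-score of -3 or lower and OD600 up to 0.18 on both plates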;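 also: plate controls were untreated cells for no effect and reference antibiotic for full effect; stock transfer was 100 nL into about 80 µL; one replicate is shown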
Sa ugtP lethal: kills S. aureus RN4220 lacking UgtP; S. aureus RN4220 ugtP deletion, OD600 growth, 16 h; some inactives read as strong as hits; growth inhibition, % (no concentration beside the values); actives 0.54% (n = 330,000); AID 1259309;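 active = z-score under -3 and OD600 up to 0.15 on both plates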;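 also: plate controls were untreated wells for no effect and antibiotic for full effect; wells of about 80 µL received 100 nL stock; the first replicate is given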
Mtb hypoxia inh: inhibitors of hypoxia-regulated fluorescent reporter in Mycobacterium tuberculosis; fluorescence inhibition, % (test concentration not listed); AID 1159583; actives 0.1% (n = 300,000); M. tuberculosis hypoxia-regulated fluorescent reporter, fluorescence;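 active = 35 to 45% if threefold the growth effect, above 45% if 1.5-fold the growth effect; inactive = the rest, general growth blockers included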;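 also: wells of about 50 µL received 100 nL stock; 0% = vehicle wells and 100% = reference inhibitor wells; whole bacteria with a GFP reporter of the hypoxia response; strong numbers were not always called active; many hits fall short of the cut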
Bead autofluor: compound fluorescence in toxin protease inhibitor counterscreen; compound autofluorescence counterscreen, microsphere flow cytometry; stronger effect = higher value; fluorescence intensity (concentration not given with the values); actives 3.1% (n = 360,000);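 active = at least 3 SD above the mean of all compounds, about 16000 in these data; inconclusive = too few beads counted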;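 also: 100 nL of 1 mM stock went into each well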
PrP UTR inh: inhibition of PrP 5' UTR reporter expression; cell-based PrP 5' UTR mRNA reporter, plate reader; inhibition, % (no concentration beside the values); actives 0.35% (n = 340,000);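 active = every replicate at 50% or more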;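 also: 0 = median of the neutral control wells; tested in H4 reporter cells; numbers are from one replicate; inactives centre near -14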
Mtb hypoxia inh growth: recorded beside Mtb hypoxia inh, whose call it bears; growth inhibition, %; measured here: M. tuberculosis growth (absorbance);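 0% = vehicle and 100% = reference antibiotic; read after six days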
The depositor's hits bear a star; ? = inconclusive; · = not tested or not shown.

SMILES | BJeLR lethal | Sa RN4220 lethal | Sa ugtP lethal | Mtb hypoxia inh | Mtb hypoxia inh growth | Bead autofluor | PrP UTR inh
CCC1=C2CCC3C(=O)N(CC)C(=O)C3C2[C@@]2(Cc3ccccc3)C(=NCCOC)OC(=O)N2C1=O (some centres not stated) | · | 4.2 | 0 | 3 | -7 | · | ·
O=C(CC(=O)NN=Cc1ccc([N+](=O)[O-])cc1)NCCc1ccccc1 | · | 2.6 | 4 | -10 | 0 | · | ·
CC(C)(C)OC(=O)N[C@@H](Cc1ccccc1)C(=O)N1CCC(C(=O)NCC(=O)O)CC1 | 3 | 2.2 | 20 | 10 | 1 | 3083 | -12
Cc1onc(-c2ccccc2Cl)c1-c1nc(-c2ccccn2)no1 | -16 | · | · | · | · | 3646 | -10
O=C(COc1ccccc1)N=C1SC2CS(=O)(=O)CC2N1Cc1ccccc1 (configuration not stated) | 2 | 0.8 | 5 | 8 | 1 | 5585 | -5
COc1ccc(C(=O)Nc2ccc(C(=O)Nc3cccc(C)c3)cc2)cc1 | 3 | 5.6 | -5 | 1 | -1 | 5159 | 1
Cc1ccc(-c2cc(C(F)(F)F)c(C#N)c(SCCC#N)n2)o1 | 10 | 2.2 | -1 | 9 | 1 | 8196 | -32
S=C(NCC1CCCO1)NC1CCCCC1 (configuration not stated) | -12 | · | · | · | · | 4395 | -3
COc1ccc(C=O)cc1COc1ccc([N+](=O)[O-])c(C)c1 | 6 | 11 | 0 | 0 | 1 | 2046 | -21
Cc1ccc(S(=O)(=O)Nc2nc3ccc(S(C)(=O)=O)cc3s2)cc1 | -1 | 5.1 | 1 | 2 | 4 | 11164 | -15
CCOC(=O)c1c(NC(=O)CSc2nnnn2-c2ccc3c(c2)OCO3)sc(C)c1C | -12 | 7.3 | 0 | 8 | 2 | 5596 | -32
COc1cc(/C=C/C(=O)O)cc(S(=O)(=O)N2CCc3ccccc32)c1OC | 2 | 5.0 | 1 | 0 | 1 | 4341 | -21
Cc1cc(C)n(CCC(=O)N/N=C/c2ccc(O)cc2O)n1 | -1 | · | · | · | · | 2094 | -12
O=C(C[C@H]1C[C@H](C(=O)N2CCCCC2)[C@@]2(CCc3ccccc3)c3[nH]c4cc(-c5ccco5)ccc4c3CCN2C1=O)NCCC1=CCCCC1 | · | 1.1 | -10 | -5 | -2 | 3431 | -5
CCOC(=O)C1C2COc3ccccc3C2N2C(=O)N(c3ccc(F)cc3)C(=O)[C@@]12C (some centres not stated) | · | 7.3 | -1 | 7 | 4 | · | ·
COc1ccc(N2CCN(Cc3nc4c(c(=O)n(C)c(=O)n4C)n3C(C)C(C)=O)CC2)cc1 (configuration not stated) | 6 | 0.4 | 10 | -2 | -7 | 8101 | 4
CCN(CC)S(=O)(=O)c1ccc(/C=C/C(=O)OCC(=O)NCc2ccco2)cc1 | · | 1.4 | 0 | 9 | -4 | 3631 | -18
CCOC(=O)c1cccc(NC(=O)c2ccc3c(c2)OCO3)c1 | -5 | 2.9 | -3 | 9 | 9 | 3071 | -73
CCCCn1c(SCC(=O)N2CCOCC2)nnc1-c1ccoc1C | -6 | 3.7 | -3 | 11 | 8 | 3722 | -13
CC(=O)NS(=O)(=O)c1ccc(Nc2ccc([N+](=O)[O-])c3nonc23)cc1 | 10 | 5.5 | 9 | 38* | 4.5* | 4288 | -4
Cc1ccc(OCC(=O)N(Cc2cccs2)C2CCS(=O)(=O)C2)cc1C (configuration not stated) | 0 | 2.9 | -5 | -4 | 8 | 5899 | -4
O=C(Nc1ccc(Br)cc1)Nn1cnnc1 | -9 | -0.5 | -6 | 22 | -1 | 7473 | -8
O=C(NCc1ccccc1)c1ccc2c(=O)n(CCCN3CCCC3=O)c(=S)[nH]c2c1 | -11 | 0.2 | 0 | 2 | 14 | · | -13
Cc1ccc(C(=O)NC(=Cc2ccc(-c3cccc([N+](=O)[O-])c3)o2)C(=O)NC(C)(C)C)cc1 | · | 13 | 1 | 4 | 4 | · | ·
CCN(CC(=O)Nc1ccc2c(c1)OCCO2)C(=O)/C=C/c1cccc(C(F)(F)F)c1 | · | 7.8 | 1 | -3 | 3 | 3840 | -9

Other entries follow.
SMILES | BJeLR lethal | Sa RN4220 lethal | Sa ugtP lethal | Mtb hypoxia inh | Mtb hypoxia inh growth | Bead autofluor | PrP UTR inh
COc1cc(NC(=O)CN(C)C2CCCCC2)c(C)cc1[N+](=O)[O-] | 2 | 1.4 | -4 | 19 | 2 | 2456 | -17
Cc1ccc(-c2csc3nc4cc(C(N)=O)ccc4c(=O)n23)cc1 | -11 | -1.6 | 5 | 9 | 14 | 3099 | -5
CCOCCCNC(=O)c1c[nH]c2ccc(S(=O)(=O)Nc3cccc(OC)c3)cc2c1=O | 3 | -1.6 | -3 | · | · | 4545 | 3
CCCNC(=O)c1ccccc1SCc1c(C)noc1C | 1 | -6.9 | -2 | -2 | 8 | 7902 | -20
O=S(=O)(NC(=NC1CCCCC1)c1ccccc1)c1ccc(F)cc1 | -8 | 1.9 | 2 | 2 | 2 | 5860 | 9
Cc1nc(NCCCN2CCOCC2)c2oc3ccccc3c2n1 | 1 | 9.4 | 1 | 5 | 7 | 3306 | -7
Cc1nc2cc(C(=O)N3c4ccccc4CC3C)ccc2s1 (configuration not stated) | 22 | 6.8 | 3 | 11 | 9 | 2544 | -15
Cc1nc2ccccc2c2c1C(=O)N(c1ccc(C(=O)O)cc1)C2=O | 8 | 2.3 | 6 | -5 | 6 | 4412 | -18
Nc1c(-c2ccccc2)cnn1-c1cccc(C(F)(F)F)c1 | 17 | 12 | -12 | 3 | 9 | 2835 | -123
C/C=C/CSc1nc2c(c(=O)[nH]c(=O)n2C)n1Cc1ccc(C)cc1 | 2 | -14 | -4 | 2 | 1 | 5656 | -11
COCCn1c(C(C)C)nc2ccccc21 | 7 | 6.8 | 4 | 0 | 1 | 5448 | -6
O=[N+]([O-])c1cccc(S(=O)(=O)Nc2ccc(S(=O)(=O)N3CCCC3)cc2)c1 | -1 | 6.9 | 8 | -3 | 12 | 5697 | -12
O=C(Cc1c(F)cccc1Cl)Nc1ncc([N+](=O)[O-])s1 | 7 | 33 | 55 | 13 | 14 | 4431 | -21
COc1ccc(N2CSC3=C(C#N)C(c4cc(OC)ccc4OC)CC(=O)N3C2)c(OC)c1 (configuration not stated) | 1 | 15 | 2 | -6 | 11 | 5992 | -17
N#Cc1c(NC(=S)NC(=O)c2ccccc2)sc2c1CCC2 | 10 | · | · | · | · | 2465 | -33
Cc1c(Cl)cccc1NC(=O)CCC(=O)c1cccs1 | -5 | 0.0 | -12 | -13 | -8 | 3519 | -18
O=C(COc1ccc2c3c(c(=O)oc2c1)CCC3)N1CCN(c2ccc(F)cc2)CC1 | -5 | 3.6 | -2 | -2 | -3 | 4423 | -10
COC(=O)c1[nH]c2ccccc2c1NC(=O)c1c(F)cccc1F | -1 | 5.7 | 15 | 5 | 1 | 4493 | 6
COC(=O)c1cc(Br)c(=O)n(CC(C)C)c1 | -5 | 1.6 | 0 | 8 | 10 | 2372 | 5
Cc1cccc(NC(=O)c2ccc(Cl)c(S(=O)(=O)N3CCCCC3)c2)n1 | 3 | 7.3 | -13 | -3 | -2 | 7578 | -23
O=C(COC(=O)/C=C/c1ccccc1)NC1CCCCCC1 | · | 2.6 | 2 | 2 | -6 | ? | -11
CCn1cc(C(=O)NCCCN2CCN(C)CC2)c(=O)c2cc(S(=O)(=O)N3CCc4ccccc4C3)ccc21 | 8 | 1.7 | -2 | 6 | 3 | 4922 | -31
COc1ccc(OC)c(S(=O)(=O)Nc2cnc3ccccc3c2)c1 | 2 | 5.3 | -1 | 6 | 11 | 7500 | -17
C/C(=N\NC(N)=S)C12CC3CC(CC(C3)C1)C2 | -4 | · | · | · | · | 9442 | -14
COc1ccc2cc(C(=O)N3CCN(Cc4ccc5c(c4)OCO5)CC3)[nH]c2c1 | 7 | -1.8 | -3 | -5 | 6 | 4787 | -7

2 entries from above, as labelled records:
Cc1nc(NCCCN2CCOCC2)c2oc3ccccc3c2n1
  BJeLR lethal = 1
  Sa RN4220 lethal = 9.4
  Sa ugtP lethal = 1
  Mtb hypoxia inh = 5
  Mtb hypoxia inh growth = 7
  Bead autofluor = 3306
  PrP UTR inh = -7

Cc1nc2cc(C(=O)N3c4ccccc4CC3C)ccc2s1 (configuration not stated)
  BJeLR lethal = 22
  Sa RN4220 lethal = 6.8
  Sa ugtP lethal = 3
  Mtb hypoxia inh = 11
  Mtb hypoxia inh growth = 9
  Bead autofluor = 2544
  PrP UTR inh = -15

The list goes on.
SMILES | BJeLR lethal | Sa RN4220 lethal | Sa ugtP lethal | Mtb hypoxia inh | Mtb hypoxia inh growth | Bead autofluor | PrP UTR inh
O=c1[nH]c(N2CCN(c3ccccc3)CC2)nc2c1CCC2 | 1 | 2.7 | 0 | · | · | 4743 | -3
N=c1c[n+](CC23CC4CC(CC(C4)C2)C3)[n-]o1 | -3 | 5.1 | 11 | · | · | 2427 | -8
CCC(C)(C)n1nnnc1C(c1ccccc1OC)N1CCSCC1 (configuration not stated) | 1 | 8.0 | 5 | 11 | 0 | 11848 | -44
CC1CCN(C(=O)COC(=O)CCC(=O)c2ccc(F)cc2)CC1 | · | 2.0 | 4 | 6 | 1 | 2890 | ·
CC1(c2ccccc2)NC(=O)N(CC(=O)N2CCN(S(=O)(=O)c3c(F)cccc3F)CC2)C1=O (configuration not stated) | · | -0.1 | 2 | 1 | 3 | 6636 | -25
CCCCN(C(=O)Cc1coc2cc(C)c(C)cc12)c1c(N)n(Cc2ccccc2)c(=O)[nH]c1=O | 4 | 0.3 | 5 | 10 | 7 | ? | -18
COc1ccc(-c2cc3nc(C)c(CCC(=O)NCc4ccco4)c(C)n3n2)c(OC)c1 | -2 | 2.9 | -8 | -1 | 22 | 20470* | -24
CC(C)Cn1nc(C(=O)Nc2nnc(C3CC3)s2)c2ccccc2c1=O | · | 0.1 | 0 | -3 | -8 | 6760 | -8
Cc1ccnc(NS(=O)(=O)c2cc(C(F)(F)F)ccc2Cl)c1 | -10 | 2.3 | 5 | 8 | 6 | · | ·
O=C(Nc1ncc(Cc2cccc([N+](=O)[O-])c2)s1)c1ccco1 | 5 | 2.8 | 4 | 15 | 3 | 3466 | -56
Cc1cc(C)c(NC(=O)COc2ccc(-n3cnnn3)cc2)c(C)c1 | -1 | 5.6 | -1 | -1 | 1 | 5756 | -3
CCn1c(/C=C/N(C)c2ccccc2)[n+](CC)c2ccc(Cl)cc21 | 11 | 11 | -4 | 10 | 20 | 13001 | -67
O=C1CSC(c2ccccn2)N1c1ccccc1F (configuration not stated) | 6 | 5.1 | 2 | 1 | 3 | 3990 | -51
CCN1CCN(Cc2ccc(OC(F)(F)F)cc2)CC1 | 10 | 0.1 | 8 | 9 | 9 | 11050 | -16
CCC(=NNC(=O)c1ccc(Br)o1)c1ccc(Cl)cc1 | · | 5.4 | 1 | 4 | 7 | · | ·
COc1cc(C=NNC(=O)CNC(=O)c2ccncc2)ccc1O | · | 1.7 | 2 | -1 | 0 | · | ·
Cc1csc(=O)n1CC(=O)OCC(=O)NC(C)c1ccc(F)cc1 (configuration not stated) | · | -3.3 | -2 | -13 | 5 | 3839 | -6
CCN1C(=O)CSC1=Nc1ccccc1Cl | 3 | 1.5 | 6 | 18 | 10 | 3940 | -32
COc1ccc(NS(=O)(=O)c2ccc(OCC(=O)N3CCCC3)cc2)cc1 | -2 | 3.5 | -4 | 8 | 6 | 9979 | -23
Cc1ccccc1NC1C=CS(=O)(=O)C1 (configuration not stated) | -1 | -14 | -3 | 13 | 10 | 2895 | -15
COc1ccc(OC)c(/C=C/C(=O)Nc2cccc(S(=O)(=O)N3CCCC3)c2)c1 | -7 | 12 | 4 | -5 | 9 | 3515 | -1
CC(NC(=O)NCc1cccnc1)(C(F)(F)F)C(F)(F)F | -1 | -6.9 | -8 | -2 | 1 | 3141 | -9
Fc1ccc(-c2nnc3ccccn23)cc1 | -6 | 0.5 | 0 | 0 | -4 | 2599 | -42
CCOc1cc(C=Nn2c(C)nnc2C)ccc1O | · | -0.4 | -5 | 8 | -1 | · | ·

3 compounds from above, reduced to PrP UTR inh and Mtb hypoxia inh growth.
canonical_smiles	PrP UTR inh	Mtb hypoxia inh growth
Cc1csc(=O)n1CC(=O)OCC(=O)NC(C)c1ccc(F)cc1 (configuration not stated)	-6	5
COc1ccc(NS(=O)(=O)c2ccc(OCC(=O)N3CCCC3)cc2)cc1	-23	6
CCN1C(=O)CSC1=Nc1ccccc1Cl	-32	10
